# High-throughput results deposited in PubChem by National Center for Advancing Translational Sciences (NCATS).
# Vaccinia mCherry – inhibitors of vaccinia virus infection (mCherry reporter signal). 310,000 tested, 0.63% active. Potency, µM (top dose mostly 36.5 µM), without a hit: at the highest dose activity change, negative = inhibition, usual class: inhibitors. Vaccinia virus mCherry reporter infection, fluorescence; about a quarter of the inactives have no number; active = well fitted inhibition curve with a large enough effect; inconclusive = small, poorly fitted or top-dose-only effect; inactive = no such curve, though single readings can be large or run the other way; tested in A549 cells; note: nearly all actives have a fitted effect of over 35% in size; inactives centre near -10
# Vaccinia Venus – inhibitors of vaccinia virus (Venus reporter) | 330,000 tested, 0.46% active | Vaccinia virus Venus reporter expression, fluorescence | Potency, µM (doses to about 36.5 µM), for the others: at the highest dose activity change, negative = inhibition, hits mostly inhibitors; active means well fitted inhibition curve with a large enough effect; inconclusive means small, poorly fitted or top-dose-only effect; inactive means no such curve, though single readings can be large or run the other way; tested in A549 cells; note: nearly all actives have a fitted effect of over 30% in size; inactives centre near -10
# The depositor's hits bear a star; i = inactive; ? = inconclusive; . = no result given; & = joins results of further samples; [ ] = remark or other dose. % is set by controls: 0 for no effect and ±100 for the full control effect; potency is the fitted concentration of half-maximal effect.
# Fields – Vaccinia mCherry | Vaccinia Venus
CCS(=O)(=O)c1ccc(O)c(Nc2cc(C)nc(SC)n2)c1
    -26% | -23%
O=c1[nH]c2ccc(S(=O)(=O)Nc3ccccc3O)cc2[nH]1
    ? | -10%
Cc1ccc2oc(-c3ccc(C)c(NC(=O)c4ccc(N5CCC(C)CC5)c([N+](=O)[O-])c4)c3)nc2c1
    -5% | -15%
Cc1c2n(c3ccccc13)CC/C2=N\O
    -20% | -10%
CC1CCC/C(=N\NC(=O)COc2ccc(Cl)cc2Cl)C1 (centres undefined)
    -17% | -7%
COc1ccc(-c2sc3ccccc3c2C#Cc2cncn2C)cc1
    -3% | ?
COc1ccc(S(=O)(=O)N(Cc2ccc(OC)c(OC)c2)Cc2ccco2)cc1
    . | -26%
N#C/C(=C/c1ccncc1)c1nc2ccccc2s1
    -4% | 20%
O=C(NC1CCCCC1)C(c1cccnc1)N(C(=O)c1csnn1)c1ccc(F)cc1 (centres undefined)
    -8% | -5%
CC(C)(C)NC(=O)[C@@H]1C[C@@H]2CCCC[C@@H]2CN1C[C@@H](O)[C@H](Cc1ccccc1)NC(=O)[C@H](CC(N)=O)NC(=O)c1ccc2ccccc2n1
    -12%&-14% | ?
Oc1c(Br)cc(Br)cc1/C=N/N1CCN(Cc2ccccc2)CC1
    -13% | -7%
O=C(CC(=O)c1ccccc1)CC(O)(C=Cc1ccccc1)c1ccccc1 (centres undefined)
    -1% | -17%
c1ccc(-c2noc(C34CC5CC(CC(C5)C3)C4)n2)nc1
    -8% | -16%
O=C([C@H]1O[C@@H](n2ccc(=O)[nH]c2=O)[C@H](O)[C@@H]1O)N1CCSC1
    51%[activator] | 6%
CCOC(=O)NC(NC(=S)Nc1ccc(OCC)cc1)C(Cl)(Cl)Cl (centres undefined)
    i | -9%
Cc1ccc(C)c(N(CC(N)=O)S(C)(=O)=O)c1
    -8% | -3%
CCC(C)OC1OC(CO)C(O)C(O)C1NC(C)=O (centres undefined)
    0% | 11%
Cn1cc(S(=O)(=O)N2CCCC2)cc1C(=O)Nc1ccc(C(F)(F)F)cc1
    -8% | -11%
Cc1cccc2c(=O)oc(-c3ccccc3Cl)nc12
    i | -18%
O=C1CC2(CCCC2)C(=O)N1c1ccc(S(=O)(=O)NCC2CC2)cc1Cl
    i | -7%
Cc1nnc(SCC(=O)Nc2c(Cl)cccc2Cl)[nH]c1=O
    i | -7%
Fc1c(F)c(F)c(NC2=NCCCCC2)c(F)c1F
    i | 0%
CC(=O)c1cccc(NC(=O)C(C)OC(=O)c2cc(=O)[nH]c3ccccc23)c1 (centres undefined)
    -4% | -12%
O=C(NCCc1ccccc1)C1CCN(S(=O)(=O)c2ccc(-n3cnnn3)cc2)CC1
    . | -8%
O=C(OCCc1ccccc1)c1cc(O)c(O)c(O)c1
    ? | 0%
Cc1noc(NS(=O)(=O)c2ccc(NC(=O)/C=C/c3ccc(Br)cc3)cc2)c1C
    -12% | -15%
N=C1c2c(cc(=O)n3c2[nH]c2ccccc23)CN1CCN1CCOCC1
    i | 14%
CCOC(=O)N1CCN(C(=S)NC(=O)c2nn(C)cc2Br)CC1
    ? | -18%
COc1ccc(C/C(C)=N/NC(=O)c2ccc(Cl)cc2)cc1
    i | -6%
Cc1ccc(-c2nnc(N3CCN(CCO)CC3)c3ccccc23)cc1
    -28% | -9%
CCCN1CCC(NC(=O)Cc2cccc(C)c2)CC1
    i | -10%
Cc1cc(C(=O)c2ccc(C(C)(C)C)cc2)c(NC(=O)CCl)s1
    -3% | -17%
S=C1NCCOCCOCCOCCNC(=S)N2CCOCCOCCN1CCOCCOCC2
    i | -2%
CCOC(=O)c1sc(Nc2nc3c(OC)cccc3s2)cc1C
    -26% | -30%
O=C(CSCc1ccc(F)cc1)NCc1cccs1
    -11% | -12%
Cc1cc(NC(=O)CSc2nnnn2-c2ccccc2)no1
    10% | 1%
Clc1ccc(CNc2ncnc3onc(-c4ccc(Cl)cc4)c23)cc1
    -10% | -2%
COc1ccccc1N1CCN(S(=O)(=O)CCNC(=O)COc2ccc(C(C)C)cc2)CC1
    -25% | -23%
CC(C)(C)c1ccc(C2NC(=O)c3n[nH]c(-c4cccs4)c32)cc1 (centres undefined)
    -4%[7.34 µM] | -7%[7.34 µM]
COc1ccc(-c2nc3c(C(=O)NCCN(C)C)cccc3c3ccccc23)cc1
    -14% | ?
Cc1ccc(NS(=O)(=O)c2ccc(-n3cccn3)cc2)c(Cl)c1
    -11% | -18%
CCc1nc2ccc(C(=O)Nc3ccc(OC)c(OC)c3)cn2c1N(CC)CCOC
    2% | -10%
Cc1cc(C)nc(NC(=O)NS(=O)(=O)Nc2ccc(Br)cn2)n1
    -15% | -5%
COc1ccc(C(=O)/C=C2/c3ccccc3CC(C)(C)N2C)cc1OC
    -14% | -19%
COC(=O)C1CCN(C(=O)CCC2CCCCC2)CC1
    -14% | -5%
CSc1ccc(S(=O)(=O)N2CCC(C(=O)Nc3ccc(NC(C)=O)cc3)CC2)cc1
    -14% | -2%
CC(C)Cn1c(CN2CCN(c3cccc(Cl)c3)CC2)nc2c1c(=O)[nH]c(=O)n2C
    ? | -26%
CCOc1ccc(NC(=O)c2cn(C)c(=O)c3cc(OC)c(OC)cc23)cc1
    -9% | -14%
CCOc1ccc(OCC(=O)OC(C)C(=O)NC2CCCCC2C)cc1 (centres undefined)
    -11% | -7%
O=C(OCC(=O)c1ccccc1Cl)c1cnccn1
    -14% | -6%
NC(=O)c1ccc(-c2ccc(N3C(c4ccsc4)=Cc4ccc(F)cc4C3CC(=O)c3ccco3)cc2)cc1 (centres undefined)
    -7% | -20%
Cc1ccc(C2CC(=O)c3cnc(NC(=O)c4ccco4)nc3C2)cc1 (centres undefined)
    . | -9%
O=C(Nc1ccc(N2CCC(N3CCCCC3)CC2)c(C(=O)O)c1)c1ccc(Br)cc1
    -2% | -5%
CCn1c(SCC(=O)N/N=C\c2ccccc2OCC(=O)O)nnc1-c1ccc(Cl)cc1
    -6% | -7%
Cc1nc(NCc2ccccc2)[nH]c(=O)c1CCC(C)C
    -3% | -20%
O=C(CSCc1nc2ccccc2[nH]1)Nc1ccc(Oc2ccccc2)cc1
    -16% | -12%
Cc1ccc2cc(CN(Cc3ccco3)C(=O)c3cccs3)c(=O)[nH]c2c1
    ? | ?
COC(=O)c1c(C(=O)OC)c(-c2ccccc2)n2c1CCC2
    -10% | -15%
O=C(CSc1ccc2nnc(-c3ccccc3)n2n1)N1CCCCC1
    1% | -7%
CC(=O)Nc1ccc(SCC(=O)Nc2ccc3c(c2)OCCO3)cc1
    i | 4%

# Following part:
# Fields – Vaccinia mCherry | Vaccinia Venus
c1ccc(C[n+]2ccc3ccccc3c2)cc1
    -20% | -12%
Cc1cc(C(=O)CCC(=O)NC(C)c2ccc(S(N)(=O)=O)cc2)c(C)s1 (centres undefined)
    i | -13%
Cc1ccc(S(=O)(=O)Nc2ccc3c(c2)OCCO3)c(C)c1NS(C)(=O)=O
    -2% | -1%
C/C(=N\Nc1ncc(Cl)cc1Cl)c1ccc2c(c1)OCO2
    ? | -5%
COc1ccc(-c2ccc3c(c2)CN(C(=O)CCc2ccccc2)Cc2cnnn2-3)cc1
    -15% | -19%
O=C(NNS(=O)(=O)c1ccc(Cl)cc1)c1cnn(-c2ccccc2)c1-n1cccc1
    -17% | -11%
Cc1ccccc1NC1=NC(=S)N(c2ccccc2)C12CCCCC2
    -11% | ?
N=c1n(Cc2ccccc2)c2ccccc2n1CC(O)c1ccco1 (centres undefined)
    . | -12%
Cc1nc(N2CCOCC2)c(C#N)c(C)c1Br
    -14% | -9%
Nc1cc2ccccc2oc1=O
    . | -8%
NC(=O)C1CCN(CCC(=O)Nc2ccc(F)c(F)c2)CC1
    -20% | -24%
Cc1ccc(-c2nc3cc(Br)cnc3nc2-c2ccc(C)cc2)cc1
    1% | 2%
CC(C)(C)OC(=O)N1O[C@H]2C[C@@H]1[C@@H]1[C@@H]2N=NN1C12CC3CC(CC(C3)C1)C2
    -9% | -22%
Cc1ccc2c(C)c(C(=O)N(Cc3ccccc3)C3CCS(=O)(=O)C3)oc2c1 (centres undefined)
    i | -8%
Cc1occc1C(=O)N/N=C/c1ccccc1[N+](=O)[O-]
    -10% | -3%
CCCS(=O)(=O)N1CC(=O)N(c2cc(C)ccc2C)C(C)(C(=O)NC2CCCCCC2)C1 (centres undefined)
    -2% | 3%
CCOC(=O)N1CCN(c2c(N3CC=C(c4ccccc4)CC3)c(=O)c2=O)CC1
    ? | -20%
CCCCC[C@H](C)N1C[C@@H](COCc2ccccc2)Oc2cc(N3CC[C@@H](O)C3)ccc2S1(=O)=O
    -4% | -7%
N#Cc1ccc(OCC(=O)N/N=C2/CC(c3ccccc3)Oc3ccccc32)cc1 (centres undefined)
    -8% | -5%
OC(c1ccc(F)c(F)c1)c1nc(-c2cccc(C(F)(F)F)c2)cs1 (centres undefined)
    i | -10%
CCOc1cc(C(=O)NC(C)C2CC3CCC2C3)cc(OCC)c1OCC (centres undefined)
    i[7.34 µM] | 2%[7.34 µM]
O=C(NCc1ccncc1)C1CCCN(S(=O)(=O)Cc2ccccc2)C1 (centres undefined)
    -8% | -1%
CC(C)N(Cc1nc(-c2ccccc2)no1)C(=O)c1ccc(Br)o1
    -6% | -9%
Cc1cccc(-c2onc3ccc(C4(C)OCCO4)cc23)c1
    -21% | -30%
COC(=O)CCSc1cc([N+](=O)[O-])cc2c1c(C1OCCS1)nn2-c1ccccc1 (centres undefined)
    . | -2%
CC(C)/C=C/C(=O)N1CCC(N2CCC(C(=O)N3CCOCC3)CC2)CC1
    i | -14%
O=C(NCC(c1cccnc1)N1CCc2ccccc2C1)c1ccc(F)c(F)c1 (centres undefined)
    -20% | -24%
CCOP(=O)(c1ccccc1)C(O)c1ccc(Br)cc1 (centres undefined)
    0% | -18%
CC1CCN(C(=O)c2cc3ccccc3cc2O)CC1
    ? | -1%
O=C(Cn1ccc2ccccc2c1=O)NCC(=O)N1CCC2(CC1)OCCO2
    i | 23%
Cc1ccc(-c2csc(Nc3ccc(C(=O)O)cc3)[n+]2Cc2ccccc2)cc1
    i | -18%
O=C(NC1CCCc2ccccc21)C1CCN(C(=O)c2sccc2-n2cccc2)CC1 (centres undefined)
    -28% | -22%
COc1cc(/C=N\Nc2ccc([N+](=O)[O-])cc2)ccc1OCC(=O)Nc1ccc(C)c(C)c1
    . | -8%
COc1ccc(CC(C)N2CCN(Cc3ccccc3)CC2)c(OC)c1 (centres undefined)
    -10% | -18%
COc1ccc(/C=N\NC(=O)c2cccc(Br)c2)c(OC)c1
    i | -8%
CCCOc1ccc(/C=N/NC(=O)C2CC2)c(OCCC)c1
    -14% | -5%
O=C(N/N=C/c1cccc(Oc2ccccc2)c1)c1cc[n+]([O-])cc1
    i | -6%
CN(Cc1c(F)cccc1Cl)S(=O)(=O)c1cccs1
    -17% | -12%
COc1ccc(-c2csc(NC(=S)NC(=O)c3ccco3)n2)cc1
    i | -9%
CCOC(=O)Cc1nnc(NC(=O)CCc2ccccc2)s1
    -18% | -2%

# Another view of two compounds above.
Structure | Vaccinia mCherry | Vaccinia Venus
COc1ccc(CC(C)N2CCN(Cc3ccccc3)CC2)c(OC)c1 (centres undefined) | -10% | -18%
O=C(NCC(c1cccnc1)N1CCc2ccccc2C1)c1ccc(F)c(F)c1 (centres undefined) | -20% | -24%

# Compound profiles, from the list above.
# `CN(Cc1c(F)cccc1Cl)S(=O)(=O)c1cccs1` reads Vaccinia mCherry: -17%; Vaccinia Venus: -12%
# `CCCOc1ccc(/C=N/NC(=O)C2CC2)c(OCCC)c1` reads Vaccinia mCherry: -14%; Vaccinia Venus: -5%

# Remaining list, next part.
# Fields – Vaccinia mCherry | Vaccinia Venus
CCc1cc(=O)oc2cc(OCC(=O)N3CC[C@@]4(O)CCCC[C@H]4C3)ccc12
    -13% | -9%
CN(Cc1ccccc1)C(=O)c1nc2ccccn2c1CN1CCc2sccc2C1
    -30% | -2%
O=C(N/N=C/C=C/c1ccccc1[N+](=O)[O-])c1cc(-c2ccccc2)n[nH]1
    i | -10%
O=C(C1=C[C@@H](c2coc3ccccc3c2=O)C[C@@H](OCc2ccc(CO)cc2)O1)N1CCOCC1
    4% | -6%
Cc1ccc(S(=O)(=O)N2CCN(C(=O)C3CCCO3)CC2)cc1C (centres undefined)
    -20% | -18%
Cc1cc(C(=O)Nc2cc(S(C)(=O)=O)ccc2Cl)c(C)o1
    i | -6%
COC(=O)[C@@H](NCc1ccc(OC)c(B(O)O)c1)C(C)C
    -12% | -2%
CCOC(=O)/C=C(\C)N1N=C(c2ccccc2)CC1c1ccccc1 (centres undefined)
    -13% | 1%
O=C(CCN1CCOCC1)N/N=C/c1cc(Br)cc(Br)c1O
    ? | -29%
O=C(Nc1ccc(-c2nc3cc(NC(=O)c4ccc(Cl)cc4)ccc3o2)cc1)c1ccc(Cl)cc1
    -10% | 4%
CC(=O)OCC(=O)C12OC(C)(C)OC1CC1C3CC=C4CC(O)CCC4(C)C3CCC12C (centres undefined)
    -1% | -4%
COC(=O)c1ccc(S(=O)(=O)c2ccc([N+](=O)[O-])cc2)cc1
    ? | 0%
O=C(O)c1cc2ncc(CCO)cn2n1
    -5% | -11%
